From PubChem BioAssay
RmlCD inh mix: inhibitors of RmlC and RmlD coupled enzymes; RmlC/RmlD coupled enzyme inhibition, 384-well mixture HTS; inhibition, % at 5.5 µM; actives 0.39% (n = 110,000); AID 1532; in the data active = inhibition above about 30%, passing the limit was not always enough; only retested compounds are shown here; note: strong numbers were not always called active
RmlCD inh mix retest: second read-out of RmlCD inh mix, no call of its own (marks repeat the call); inhibition, %; measured here: mean retest inhibition;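 single compounds in two wells; values far above 100% likely come from compound fluorescence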
An asterisk follows results filed as active; i = inactive. These rows are one share of the data; count on the stated rates, not on these rows.

Each structure is followed by: RmlCD inh mix	RmlCD inh mix retest
CCOC(=O)CCSCC(=O)Nc1nnc(C)s1
→ 173	3
CC1CCN(S(=O)(=O)c2ccc(NC(=O)CCN3C(=O)c4ccccc4C3=O)cc2)CC1
→ 30	-18
O=C(CN1CCN(Cc2ccccc2)C1=O)NCc1cccs1
→ 40	-7
O=C(NC12CC3CC(CC(C3)C1)C2)N1CC2Cc3cccc(=O)n3C(C2)C1 (stereo not given)
→ 31	-3
CSC(=NS(=O)(=O)c1ccc(C)cc1)SC
→ 84	1
Cc1ccc(CSCC(=O)Nc2ccc3c(c2)OCO3)cc1
→ 44	-10
CCC(CC)c1nnc(NC(=O)c2nc3nc(C)cc(C)n3n2)s1
→ 50	-11
COc1cc(C2NC(=O)C(C#N)=C(S)N2c2ccccc2)ccc1OC(C)C (stereo not given)
→ 30	0
CCCn1nnc(NC(=O)c2ccc(Br)o2)n1
→ 59	0
O=Cc1cn(-c2ccccc2)nc1-c1cc2cc(O)ccc2oc1=O
→ 39	-310
CCOC(=O)Nc1ccc2c(CN3C(=O)NC4(CCCC4)C3=O)cc(=O)oc2c1
→ 74*	77*
Cc1[nH]n(-c2ccc([N+](=O)[O-])cc2)c(=O)c1C=NCCN1CCN(C(=O)c2cccc(F)c2)CC1
→ 144	-13
Cc1ccc(C)c(/C(O)=C2\C(=O)C(=O)N(CCCn3ccnc3)C2c2ccncc2)c1 (stereo not given)
→ 53	-8
CC1(C)CC(=NO)CC(C)(C)N1
→ 80	-8
CC1CN=C(NC2CCCCC2C)S1 (stereo not given)
→ 51	-5
CC1CN=C(NCc2ccccc2)S1 (stereo not given)
→ 88	-11
FC(F)(F)c1cccc(-n2cccc2/C=N/n2cnnc2)c1
→ 32	-11
Cc1ccccc1-c1nnc(SCc2ccc(F)cc2)o1
→ 104	-10
Cc1noc(C)c1COC(=O)c1ccc2c(c1)OCCO2
→ 154	1
COc1cccc(NC(=O)Nc2ccc3c(c2)N(C)C(=O)CS3)c1
→ i	3
COc1cc2[nH]c(=O)n(CCCC(=O)N3CC=C(c4ccccc4)CC3)c(=O)c2cc1OC
→ 52*	56*
NC(=O)c1c(NC(=O)CSc2nnc(Cc3ccccc3)n2Cc2ccco2)sc2c1CCC2
→ 36	-1
Cc1cccc(NC(=O)CSc2nnc(-c3ccco3)c(-c3ccco3)n2)c1C
→ 122	-12
CCOC(=O)C1C(=O)NC(N2CCCCC2)=NC1C(C)C (stereo not given)
→ 60	-2
Fc1cnc(N2CCOCC2)nc1NCc1ccccc1
→ 59	-2
CSc1nc(-c2ccco2)nn1C(=O)c1ccccc1
→ 147	8
CC(NS(=O)(=O)c1ccc(Cl)cc1)C(=O)NCc1ccco1 (stereo not given)
→ 68	11
CC(C)(O[C@@H]1O[C@H](CO)[C@@H](O)[C@H](O)[C@H]1O)[C@H]1Cc2cc3ccc(=O)oc3cc2O1
→ 56*	107*
Cc1cc(C)n(C(=O)CNC(=O)COc2ccccc2)n1
→ 42	-2
CSCC[C@H](NC(=O)OC(C)(C)C)c1nnc(SCC(N)=O)o1
→ 44	-10

Sorted by SMILES length (falling): part of the list above
Each structure is followed by: RmlCD inh mix	RmlCD inh mix retest
Cc1[nH]n(-c2ccc([N+](=O)[O-])cc2)c(=O)c1C=NCCN1CCN(C(=O)c2cccc(F)c2)CC1
→ 144	-13
Cc1cccc(NC(=O)CSc2nnc(-c3ccco3)c(-c3ccco3)n2)c1C
→ 122	-12
Fc1cnc(N2CCOCC2)nc1NCc1ccccc1
→ 59	-2

Other results:
Each structure is followed by: RmlCD inh mix	RmlCD inh mix retest
Cn1cnnc1SCc1ccc(-c2ccc(Br)cc2)o1
→ 39	-4
CCN(CC)S(=O)(=O)c1ccc(N=Nc2c(C)[nH]n(C(N)=S)c2=O)cc1
→ i	-7
COc1cc(NS(=O)(=O)c2ccc(C)c(C)c2)c(OC)cc1Cl
→ 35	-6
CC(C)(C)Nc1nc(NN)nc(NC(C)(C)C)n1
→ 46	-7
CCOC(=O)C1CCCN(C(=O)N2CCOCC2)C1 (stereo not given)
→ i	6
O=C(CCC1N=C2c3ccccc3N=C(SCc3ccc(F)cc3)N2C1=O)NCc1ccco1 (stereo not given)
→ 40	0
O=C(c1ccco1)n1nc(-c2ccccc2)nc1NCc1ccco1
→ 50	1
COc1ccccc1-c1cc(C(F)(F)F)nc(S(=O)(=O)CCCC(=O)N2CCOCC2)n1
→ 69	-35
Cc1ccccc1Cn1c(=O)n(CCCC(=O)NCc2ccco2)c(=O)c2sccc21
→ 136	13
COc1cccc2cc(C(=O)N3CCN(c4ccccc4F)CC3)c(=O)oc12
→ 68	2
O=C(Nc1ccccc1Cl)c1cccs1
→ 51	3
Cc1nnc(SCCn2c(N3CCCCCC3)nc3c2c(=O)[nH]c(=O)n3C)s1
→ 72	-3
Cc1oc2c(CN(C)C)c(O)ccc2c(=O)c1-c1cscn1
→ 35	20
Cn1c(SCC(=O)NCc2cccs2)nnc1-c1ccco1
→ 32	-2
CCC(C)NC(=O)CSC1=Nc2ccccc2C2=NC(CC(=O)NCc3ccccc3)C(=O)N12 (stereo not given)
→ 70	-4
O=C(C1CCCN(S(=O)(=O)c2cnc[nH]2)C1)N1CCN(Cc2ccccc2)CC1 (stereo not given)
→ 80	-4
CCOC(=O)N1CCN(C(=O)c2cccn3c(=O)c4sccc4nc23)CC1
→ 41	22
Cc1cc(C)c2c(c1)NC(=O)C2(O)CC(=O)c1cccs1 (stereo not given)
→ 50	-10
O=C(c1ccc2ccccc2n1)N1CCN(c2ccccc2)CC1
→ 119	7
CCSc1nnc(NC(=O)COc2ccc3ccccc3c2)s1
→ 87	-7
COC(=O)CCCCC(=O)C1C(=O)CC(C)(C)C(C(=O)OC)C1=O (stereo not given)
→ 34	6
O=C(NC1c2ccccc2-c2ccccc21)N1CCCCC1
→ 124	-20
COCCn1c(N)c(C(=O)NCC2CCCO2)c2nc3ccccc3nc21 (stereo not given)
→ 87	3
c1ccc(-c2n[nH]c(-c3ccccn3)n2)cc1
→ 32	0
COc1ccc(Cn2nnnc2C(c2ccc(C)cc2)N2CCN(C3CCCC3)CC2)cc1 (stereo not given)
→ 40	-7
COc1ccc(C(=O)N2CC3(CC(c4cccc(NC(=O)COc5ccc(Cl)cc5)c4)=NO3)C[C@@H]2C(N)=O)cc1 (stereo not given in full)
→ 68	-5
CCOC(=O)Cc1c(C)nc2c(-c3ccccc3)c(C)nn2c1C
→ 32	-4
O=C1c2ccccc2CCC12N=NCC2c1ccc(Cl)cc1 (stereo not given)
→ i	22
COCCCNC(=O)CSc1nc2ccc(N3CCOCC3)cc2c(=O)n1CCc1ccccc1
→ 33	20
Cc1cc(=O)n2ccccc2c1C#N
→ 104*	92*

Next section:
Each structure is followed by: RmlCD inh mix	RmlCD inh mix retest
CCCCN1CCC(C#N)(Nc2ccccc2)CC1
→ 46	-7
O=C1CCCC2=C1C(c1ccncc1)c1c(nc(SCc3ccccc3Cl)[nH]c1=O)N2 (stereo not given)
→ 32	7
O=C(c1nc2nc(-c3ccccc3)cc(C(F)(F)F)n2n1)N1CCOCC1
→ 100	4
C[C@]12CCC(=O)C=C1CC[C@@H]1[C@@H]2C(=O)C[C@]2(C)C(=O)CC[C@@H]12
→ 66	-4
Cc1c(NC(=O)C(C)c2ccc(CC(C)C)cc2)c(=O)n(-c2ccccc2)n1C (stereo not given)
→ 69	1
COC(=O)[C@@H]1C[C@@]2(O)[C@H](O)[C@H](O)[C@H](O)C[C@H]2N1Cc1ccc(-c2ccccc2)cc1
→ 85	6
CC1CCC/C(=N/Nc2ccc([N+](=O)[O-])cc2[N+](=O)[O-])C1 (stereo not given)
→ 44	5
O=c1[nH]c(Nc2ccccn2)cc2ccccc12
→ 32	19
Cc1cc(/C=C2\C(=N)N3C(SCc4ccccc4)=NSC3=NC2=O)c(C)n1Cc1ccccc1
→ 65	7
Clc1nc(-c2ccccc2)cc(-c2ccc(Br)cc2)n1
→ 102	2
Cc1ccc(-n2c(SCC3CCCCO3)nnc2-c2ccco2)cc1 (stereo not given)
→ 124	-9
Cc1[nH]n2c(=O)cc(C(C)(C)C)nc2c1-c1ccccc1
→ 43	2
CCCCCCCC(=O)N/N=C/c1cccnc1
→ 41	6
COCCCNC(=O)c1sc2ncnc(N3CCc4ccccc4C3)c2c1C
→ 30	5
COc1cccc(-n2c(C)nn(C)c2=O)c1
→ 104	1
CCOC(=O)CSC1=C(C#N)C(c2ccccc2Cl)C(C(=O)OC)C(=O)N1 (stereo not given)
→ 128	4
CCSc1nc2c(sc3ccccc32)c(=O)n1C(C)C
→ 38	-1
Cc1ccc(OCCNC(=O)Cn2cnc3c(=O)n(C)c(=O)n(C)c32)cc1C
→ 40	4
O=C(COC(=O)c1cccc(S(=O)(=O)N2CCOCC2)c1)Nc1ccc2c(c1)OCO2
→ i	-15
CC(C)=CCCC(C)CN1CCC(O)CC1 (stereo not given)
→ 70	1
COc1cc(NC(=O)c2cccs2)c(C(=O)OCC(=O)NC(=O)NC(C)(C)C)cc1OC
→ 43	-24
c1ccc(-n2nnnc2SCc2ccccn2)cc1
→ 104	-14
CCN(CC)c1cccc(OC2=NS(=O)(=O)c3ccccc32)c1
→ 125	5
CC(=O)Cc1nsc(NC(=O)c2ccc(Br)o2)n1
→ 67	4
O=C(CC1SC2=NCCN2C1=O)Nc1ccc(Cl)cc1 (stereo not given)
→ 37	5
Cc1cccc(NS(=O)(=O)Cc2ccccc2)n1
→ 32	19
Cc1oc2ccccc2c1-c1cn2c(n1)SCC2
→ 52*	61*
COc1ccccc1NC(=O)CCN1CC(C)OC(C)C1 (stereo not given)
→ 40	-2
CCCCCCc1c(O)c2ccccc2[nH]c1=O
→ 37	12
O=S(=O)(Nc1ccc(S(=O)(=O)Nc2ccccc2)cc1)c1ccccc1
→ 126	-16

Of the compounds above, nine contain a Cl atom:
Each structure is followed by: RmlCD inh mix	RmlCD inh mix retest
CC(NS(=O)(=O)c1ccc(Cl)cc1)C(=O)NCc1ccco1 (stereo not given)
→ 68	11
COc1cc(NS(=O)(=O)c2ccc(C)c(C)c2)c(OC)cc1Cl
→ 35	-6
O=C(Nc1ccccc1Cl)c1cccs1
→ 51	3
COc1ccc(C(=O)N2CC3(CC(c4cccc(NC(=O)COc5ccc(Cl)cc5)c4)=NO3)C[C@@H]2C(N)=O)cc1 (stereo not given in full)
→ 68	-5
O=C1c2ccccc2CCC12N=NCC2c1ccc(Cl)cc1 (stereo not given)
→ i	22
O=C1CCCC2=C1C(c1ccncc1)c1c(nc(SCc3ccccc3Cl)[nH]c1=O)N2 (stereo not given)
→ 32	7
Clc1nc(-c2ccccc2)cc(-c2ccc(Br)cc2)n1
→ 102	2
CCOC(=O)CSC1=C(C#N)C(c2ccccc2Cl)C(C(=O)OC)C(=O)N1 (stereo not given)
→ 128	4
O=C(CC1SC2=NCCN2C1=O)Nc1ccc(Cl)cc1 (stereo not given)
→ 37	5

Continued.
Each structure is followed by: RmlCD inh mix	RmlCD inh mix retest
N#CC1=C2Nc3ccccc3N2C(=O)NC1(c1ccccc1)C(F)(F)F (stereo not given)
→ 37	-15
COc1ccc(-c2cc3nc4n(c(=O)c3s2)CCC4)cc1
→ 50*	66*
CCOC(=O)c1c(C)n(CCNC(C)=O)c2ccc(OC)cc12
→ 40	-6
CCn1nnc(NC(=O)c2cccc(-c3cc4ccccc4oc3=O)c2)n1
→ 56	-1
CN1CCN(Cc2cccc(Oc3ccc(Cl)cc3)c2)CC1
→ 91	2
N/C(=N\OC(=O)CCCN1C(=O)c2ccccc2C1=O)c1ccc(Br)cc1
→ 117	-1
COC(=O)C1=C(C)n2nnnc2NC1c1cc2ccccc2o1 (stereo not given)
→ 82	-7
CC(C)OP(=O)(OC(C)C)C(NC(=O)c1ccc(Br)cc1)c1ccccc1 (stereo not given)
→ 41	-16
CCCCC(=O)Nc1nnc(SCC(=O)NC2CCCC2)s1
→ i	6
O=C(CN1C(=O)C2CC=CCC2C1=O)Nc1ccc(-c2nnc3n2CCCCC3)cc1 (stereo not given)
→ 52	-2
CCn1c(SC(=O)NC2CCCCC2)nnc1-c1cccs1
→ 40	12
CC1=Nn2c(nnc2-c2ccccc2F)SC1
→ 102	-10
O=C(NCCN1CCCCC1)c1ccco1
→ 41	5
COc1ccc(C2C=C(c3cccs3)Nc3nc(CCCO)nn32)cc1 (stereo not given)
→ 44*	62*
Fc1ccc(C(OCCN2CCN(CCCc3ccccc3)CC2)c2ccc(F)cc2)cc1
→ 37	-1
CCCC(=O)N1CC2(CCC)CN(C(=O)CCC)CC(CCC)(C1)C2=O
→ 40	6
O=C(O)c1cc2c(ccc3ccccc32)oc1=O
→ 82*	65*
CSc1ncccc1C(=O)OCC(=O)NC1CCS(=O)(=O)C1 (stereo not given)
→ 64	-2
CCOC(=O)c1sc2nc(C)cc(C)c2c1N
→ 46	-18
CCOC(=O)CN1CC23C=CC(O2)C(C(=O)Nc2cc(OC)ccc2OC)C3C1=O (stereo not given)
→ 33	2
CCc1nc(SCC(=O)c2ccc3c(c2)OCCO3)c2ccccc2n1
→ 43	-1
COC(=O)C1CCN(C(=O)/C=C/c2ccc(OC)cc2)CC1
→ 69	3
N#CC1=C2N=C(N)c3c(sc4c3CCCCC4)N2C2=C(C(=O)CCC2)C1c1ccccc1 (stereo not given)
→ 105	-1
C=CCNC(=O)C1CCN(S(=O)(=O)c2ccccc2)CC1
→ i	-14
CC(C)OC(=O)c1c(N)n(CCCN2CCOCC2)c2nc3ccccc3nc12
→ 38*	49*
Cc1ccc(S(=O)(=O)N(C)Cc2cc3ccccc3[nH]c2=O)cc1
→ 30	-9
CCN1CCN(C(=O)c2cc3cc4ccc(OC)cc4nc3s2)CC1
→ 36	26
